MgrA-DNA mod: S. aureus MgrA-DNA binding modulation | fluorescence polarization | actives 0.13% (n = 84,000) | inhibition, %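 (about 10 µg/mL by stock and volumes)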;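 active means above 50% in either of two replicates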;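 further: 0% = protein plus DNA without compound and 100% = DNA alone without protein; higher means less MgrA bound to DNA so lower polarization; one replicate is shown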
S aureus helic: blocks Staphylococcus aureus DNA helicase. purified S. aureus helicase, fluorescence unwinding assay; about half of the hits fall short of the stated cut. AID 485395. inhibition, %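 (tested at about 80 µM)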. actives 0.05% (n = 120,000);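 active means both duplicates at 50% or more, or one of them with a favoured structure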;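 further: 0% = mean of negative control wells and 100% = mean of positive control wells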
The depositor's hits bear a star; . = no result given. Some of the compounds tested; count on the stated rates, not on these rows.

MgrA-DNA mod	S aureus helic	smiles
.	13.0	COc1ccc(C(=O)c2ccc(OC)c(OC)c2)cc1
0.7	13.0	O=C(c1cc(-c2ccc(O)cc2)on1)N1CCN(Cc2ccccc2)CC1
-2.0	14.0	CC(C)CNC(=O)Cc1ccccc1
-3.6	6.0	CSc1ccc(/C=N/NC(N)=S)cc1
3.1	12.0	Cc1ccc(CCS(=O)(=O)c2ccc(C(C)C)cc2)c[n+]1C
2.0	-2.0	CCCC1CC(C)(C(=O)C[n+]2cccc(C(N)=O)c2)OC1=O (configuration not stated)
-1.1	3.0	CCOc1ccc2[nH]c(=O)c(CN(CCO)C(=O)Nc3ccc(OC)cc3)cc2c1
.	3.0	CCCc1nc2ccccc2n2cc3c(=O)n(C)c(=O)n(C)c3c12
-1.1	.	COc1ccc(NC(=O)c2cc(F)cc3c2OCOC3)cc1
-0.7	10.0	COCC(=O)N1CCN(Cc2ccccc2)CC1
55.8*	16.0	O=C1OC(c2ccccc2)OC(=O)C1=Cc1cccc(OCc2ccccc2)c1 (configuration not stated)
-0.8	5.0	CN1CCN(c2nc(C#N)c(C#N)nc2C(C#N)=C2Nc3ccccc3N2)CC1
.	-9.0	O=C(NCCCN1CCCCCC1)c1cc(=O)[nH]c2ccc(S(=O)(=O)N3CCCCC3)cc12
.	-6.0	CCN(C(=O)C(C)Sc1ccc(S(=O)(=O)N2CCN(C)CC2)cn1)c1ccccc1 (configuration not stated)
-0.9	.	Cc1nc(Nc2ccccc2)sc1C(=O)c1ccc2c(c1)OCCO2
.	28.0	CC(C(=O)NCc1ccc(F)cc1)n1cccc1C(=O)c1ccccc1 (configuration not stated)
0.0	.	CCOc1cc(C(F)(F)F)c(C(=O)N(CC)c2ccc(Cl)cc2)cn1
.	4.0	COC(=O)C(C)NC(=O)N1CCN(c2nnc(C)c3c(C)n(-c4ccc(C)cc4)nc23)CC1 (configuration not stated)
1.2	-2.0	CC1CCN(C(=O)c2ccc(Br)cc2)CC1
2.6	-3.0	COc1ccc(OC)c(NC(=O)COc2ccc3c4c(c(=O)oc3c2)CCC4)c1
-1.1	.	O=C(NCc1ccc(C(F)(F)F)cc1)c1ccc(Cl)cc1Cl
.	-92.0	CCCCn1c(=O)[nH]c2nc3cc(N(C)C)ccc3nc2c1=O
-0.3	-5.0	Cc1ccc(C(=O)CSc2nc(C)cc(=O)[nH]2)cc1
.	-26.0	O=C(Cn1c(=O)n(CC(=O)NC2CCCC2)c(=O)c2ccccc21)Nc1ccc(F)cc1
-1.0	-5.0	CC(=NCCc1ccccc1)C1=C(O)C(c2ccccc2)OC1=O (configuration not stated)
-0.5	11.0	COc1ccc(C2SCC(C(=O)NC3CCCCCC3)N2C(=O)Nc2ccc(C)c(C)c2)cc1 (configuration not stated)
.	12.0	Cc1ccc(-c2nc(-c3ccccn3)no2)c(Cl)c1
-1.3	11.0	CN(C)S(=O)(=O)c1ccc(-c2csc(-c3cccnc3)n2)cc1
.	-4.0	CC(O)c1nc2ccccc2n1C/C=C/c1ccccc1 (configuration not stated)
1.0	-3.0	Cc1ccc2nc3ccc(NCc4ccccc4)nn3c(=O)c2c1
5.5	17.0	Fc1ccc(-c2nnc(Cl)c3ccccc23)cc1F
-0.7	5.0	CCOCC(=O)N1CCC(Cc2ccccc2)CC1
-1.6	.	Cc1nc(C(F)(F)F)ccc1C(=O)NN
.	3.0	Cc1c(C(=O)NCCCc2ccccc2)oc2c1-c1[nH]ncc1CC2
.	-4.0	Cc1ccc(OCC(=O)Nc2cccc(-c3nc4ccccc4c(=O)o3)c2)cc1
.	-11.0	O=C(Cc1ccc(-n2c(=O)c3ccccc3n(CC(=O)NCc3ccco3)c2=O)cc1)NCC1CCCO1 (configuration not stated)
.	8.0	C=C1C(C(=O)N2CCN(c3ccccc3)CC2)C1C(=O)N1CCN(c2ccccc2)CC1 (configuration not stated)
.	7.0	COc1ccc(C)cc1CSc1nnc(-c2cccs2)n1C1CC1
.	4.0	Cc1oc2ncn(C)c(=O)c2c1C(=O)O
.	17.0	COc1ccc(CC(=O)N2CCc3ccccc32)cc1OC
.	-27.0	CC1CC2(C)Oc3ccccc3C3OCC1CC32 (configuration not stated)
.	1.0	Cc1ccc(OCC(=O)OCC(=O)Nc2ncc(Cl)cc2Cl)cc1C
.	1.0	CC(O)c1nc2ccccc2s1 (configuration not stated)
-0.5	5.0	Cc1sc(NC(=O)C(Cc2ccccc2)Cc2ccccc2)c(C#N)c1C
-1.0	-13.0	CC(NC(=O)/C=C/c1ccc2c(c1)OCO2)c1ccccc1 (configuration not stated)
-1.6	10.0	CCOC(=O)c1oc2ccc3nc(N(C)C)sc3c2c1C
.	7.0	CC1CC(=O)N(C)c2ccccc2S1 (configuration not stated)
.	-23.0	Cc1cc(C)nc(SCc2cn3ccccc3n2)n1
.	2.0	COCCn1c(=NC(=O)CSCC(=O)N2CCc3ccccc32)sc2cc(OC)ccc21
.	-24.0	COc1nc2nonc2nc1Nc1ccc(C)cc1
-3.2	14.0	O=C(Nc1cccc(-c2nc3ccccc3[nH]2)c1)C1CCCO1 (configuration not stated)
.	7.0	O=C1c2ccccc2C(=O)N1CCCCSc1nnc2ccccn12
-2.5	.	Cc1csc(-c2ccc(-c3csnn3)cc2)n1
.	8.0	O=S1(=O)CC(O)C(N2CCN(Cc3ccccc3)CC2)C1 (configuration not stated)
.	6.0	CNc1nn2nnnc2c2ccccc12
.	16.0	CNC(=S)N(Cc1ccc(S(N)(=O)=O)cc1)CC(F)(F)F
.	14.0	CCOC(=O)C1=NN(c2ccc(C)cc2)C2C(=O)N(c3ccc(Cl)cc3)C(=O)C12 (configuration not stated)
.	-18.0	O=S(=O)(NNC1=NCCCCC1)c1ccccc1
.	-17.0	CC1CCCN(S(=O)(=O)c2cccc(-c3cn4cccnc4n3)c2)C1 (configuration not stated)
.	-26.0	Oc1c(Cl)cc(Cl)cc1/C=N/c1nc2c(s1)CCCC2

A different layout for six compounds above:
The line under a structure holds: MgrA-DNA mod | S aureus helic
COc1ccc(NC(=O)c2cc(F)cc3c2OCOC3)cc1
 : -1.1 | .
COCC(=O)N1CCN(Cc2ccccc2)CC1
 : -0.7 | 10.0
O=C1OC(c2ccccc2)OC(=O)C1=Cc1cccc(OCc2ccccc2)c1 (configuration not stated)
 : 55.8* | 16.0
CN1CCN(c2nc(C#N)c(C#N)nc2C(C#N)=C2Nc3ccccc3N2)CC1
 : -0.8 | 5.0
O=C(NCCCN1CCCCCC1)c1cc(=O)[nH]c2ccc(S(=O)(=O)N3CCCCC3)cc12
 : . | -9.0
CCN(C(=O)C(C)Sc1ccc(S(=O)(=O)N2CCN(C)CC2)cn1)c1ccccc1 (configuration not stated)
 : . | -6.0

Reprinted at random: four records from the list, in no set order.
MgrA-DNA mod	S aureus helic	smiles
.	-26.0	Oc1c(Cl)cc(Cl)cc1/C=N/c1nc2c(s1)CCCC2
-3.2	14.0	O=C(Nc1cccc(-c2nc3ccccc3[nH]2)c1)C1CCCO1 (configuration not stated)
.	16.0	CNC(=S)N(Cc1ccc(S(N)(=O)=O)cc1)CC(F)(F)F
-1.6	10.0	CCOC(=O)c1oc2ccc3nc(N(C)C)sc3c2c1C

More compounds follow:
MgrA-DNA mod	S aureus helic	smiles
.	18.0	CCc1cccc(NC(=O)CCc2nc(-c3ccc(C)cc3)no2)c1
2.4	-1.0	COc1ccc(C(=O)Nc2ccc(N3CCN(S(C)(=O)=O)CC3)cc2)cc1OC
.	5.0	Cc1ccc(S(=O)(=O)CCc2nc3ccccc3n2CC(=O)O)cc1
.	11.0	CC1=C(C(=O)OC2CCCC2)C(c2cc3c(cc2Cl)OCO3)C2=C(CCCC2=O)N1 (configuration not stated)
.	-4.0	COc1ccc(/C=C2/C(=O)CNC2=O)cc1
3.0	.	COc1cc2c(cc1OC)C(C)N(C(=O)c1ccccc1)CC2 (configuration not stated)
.	26.0	CC(=O)Nc1ccc(/C=N/n2cc(-c3ccccc3)[nH]c2=S)cc1
.	31.0	O=c1ccc2cc(S(=O)(=O)Nc3ccccn3)ccc2o1
.	11.0	Cc1ccc(N2N=NC3CCC(C4=CCCC4)C32N2CCOCC2)cc1Cl (configuration not stated)
-1.2	8.0	Cc1cccc(C)c1NC(=O)C(C)Sc1n[nH]c(-c2ccncc2)n1 (configuration not stated)
.	1.0	COc1ccc(NC(=O)/C=C2\SC(=O)NC2=O)cc1
.	15.0	C=CCNC(=O)c1cc(C2CC2)on1
.	2.0	CCCCn1c(N)c(S(=O)(=O)c2ccccc2)c2nc3ccccc3nc21
1.2	.	Cn1c2ccccc2n2c(=O)cc(-c3ccccc3)c(C#N)c12
0.1	.	COCCNC(=O)c1nn2c(C(F)(F)F)cc(-c3ccc(OC)c(OC)c3)nc2c1Cl
.	3.0	COc1ccc(OC)c(S(=O)(=O)Nc2cccc(-c3cn4c(n3)SCC4)c2)c1
.	9.0	O=C(CSc1c2c(nc3ccccc13)CCC2)Nc1ccccc1F
.	-10.0	O=C(OCc1nnc(-c2ccccc2)o1)C1(c2ccc(Cl)cc2)CCCC1
.	-21.0	CC(C)[C@H](NC(N)=O)C(=O)Nc1ccc(Oc2ccccc2)cc1
0.8	.	O=C(Nc1ccccc1)Oc1cccc(N2CCOCC2)c1
2.3	4.0	CCc1cc(=O)oc2cc(OCC(=O)N3CCCc4ccccc43)ccc12
.	11.0	O=S(=O)(NCC(c1cccs1)N1CCc2ccccc21)c1ccccc1 (configuration not stated)
.	6.0	Cc1ccc(CS(=O)(=O)Cc2ccc(C(=O)O)o2)cc1
6.3	1.0	C=CCNC(=O)C(C)Sc1ccc(C)cc1 (configuration not stated)
-0.4	-3.0	O=C(CC1Nc2c3ccccc3nc(=S)n2C1=O)NCc1ccccc1 (configuration not stated)
.	4.0	CCCS(=O)(=O)N1CCN(c2cccc(Cl)c2)CC1
.	19.0	Cc1ccc2cccc(O)c2n1
-0.6	.	CCOC(=O)c1csc(CS(=O)(=O)c2ccc(Cl)cc2)n1
.	-2.0	Cc1cnc(C(=O)N(CC(C)C)c2c(N)n(CC(C)C)c(=O)[nH]c2=O)cn1
.	17.0	COc1ccc(OC)c(NC(=O)c2cc3ccccn3n2)c1

Arranged by number of heavy atoms (high to low): part of the list above
MgrA-DNA mod	S aureus helic	smiles
.	3.0	COc1ccc(OC)c(S(=O)(=O)Nc2cccc(-c3cn4c(n3)SCC4)c2)c1
2.3	4.0	CCc1cc(=O)oc2cc(OCC(=O)N3CCCc4ccccc43)ccc12
.	-21.0	CC(C)[C@H](NC(N)=O)C(=O)Nc1ccc(Oc2ccccc2)cc1
.	17.0	COc1ccc(OC)c(NC(=O)c2cc3ccccn3n2)c1
.	19.0	Cc1ccc2cccc(O)c2n1

Going on with the list.
MgrA-DNA mod	S aureus helic	smiles
0.8	-14.0	CCCCN(CC)C(=O)Cn1c(=O)n(Cc2ccccc2Cl)c(=O)c2cc(OC)c(OC)cc21
.	12.0	Cc1ccccc1Cn1cc(NC(=O)c2cc3ccccc3oc2=O)cn1
-1.8	.	C=CCSc1nc(C)cc(C(=O)OCC)c1C#N
1.4	4.0	CCNc1sc(S(C)(=O)=O)nc1S(=O)(=O)c1ccc(Cl)cc1
-2.5	.	COc1ccc(CN=Cc2ccnc(SCc3ccc(Cl)cc3Cl)n2)cc1
1.1	10.0	O=C1C=CC(=O)N1c1cccc2ccccc12
.	-43.0	Cn1c(=N)n(CC(O)c2ccco2)c2ccccc21 (configuration not stated)
.	-2.0	CCc1cccc2c(C(=O)Cn3nc(C)c(C)c(C#N)c3=O)c[nH]c12
.	-34.0	N/C(COc1ccc2nonc2c1)=N\OC(=O)c1ccc(Cl)cc1
.	23.0	NC(=O)c1cc2ccccc2o/c1=N\NC(=O)c1ccccc1O
.	5.0	COc1ccc2oc(=O)c(C(=O)OC3CCCCC3)cc2c1
.	15.0	CC(C)(NCc1ccccc1Cl)C(=O)O
.	10.0	c1ccc(CCSc2ncnc3nc[nH]c23)cc1
1.8	1.0	CCNS(=O)(=O)c1cc(-c2nnc(Nc3ccc(F)cc3)c3ccccc23)ccc1C
-2.9	.	CC(=O)c1ccc([N+](=O)[O-])cc1Cl
.	-18.0	O=c1oc2ccccc2c2c1ncn2CCCN1CCOCC1
.	-4.0	O=C(COC(=O)c1nc(-c2ccccc2)n(-c2ccccc2)n1)NCC1CCCO1 (configuration not stated)
1.0	4.0	COC(=O)C(=NNc1cccc(Cl)c1)C(=O)OC
-2.2	.	COc1cccc(CC(N)=O)c1
.	24.0	O=C(NCCN1CCOCC1)c1ccc2c(=O)n3c(nc2c1)CCCCC3
-0.6	.	Cc1cc(-c2nc(-c3ccnn3S(=O)(=O)c3cccc(C(F)(F)F)c3)cs2)no1
.	4.0	COc1ccc2c(COC(=O)c3cncc(Br)c3)cc(=O)oc2c1
.	5.0	Cc1ccc(C)c(SCC(=O)OCC(=O)c2ccco2)c1
0.3	9.0	COc1ccc2oc(C)c(C(O)c3cc4ccccc4o3)c2c1 (configuration not stated)
.	-17.0	CC(CC(=O)Nc1nc2ccccc2[nH]1)c1ccccc1 (configuration not stated)
0.5	4.0	CCCc1ccc(-c2ccc(/C=C/C(=O)O)cc2)nc1
0.3	6.0	COc1ccc(CNc2oc(C)nc2C#N)cc1
.	-6.0	CC(C)C(NC(=O)Cc1ccccc1)C(=O)N1CCN(S(=O)(=O)c2cccc(Cl)c2)CC1 (configuration not stated)
.	-26.0	Clc1cccc(NCc2ccco2)c1
.	-5.0	Cc1ccc(C#N)cc1
-2.7	8.0	CC1(C)CC(CCNC(=O)c2ccccc2C(=O)O)(Cc2ccccc2)CCO1 (configuration not stated)
-3.0	-2.0	CCCNC(=O)c1c(OC)cccc1OC
.	11.0	O=C(CSc1ccc(-c2ccco2)nn1)N1CCCc2ccccc21
0.5	-1.0	O=C1c2ccccc2C(=O)N1CNN1CCCc2ccccc21
.	2.0	O=C(CNC(=O)c1cccs1)NC1=NCCS1

Structures above shown as hits in MgrA-DNA mod.
MgrA-DNA mod	S aureus helic	smiles
55.8*	16.0	O=C1OC(c2ccccc2)OC(=O)C1=Cc1cccc(OCc2ccccc2)c1 (configuration not stated)
